# Bioassay records as filed in PubChem.
# PV pol inh = poliovirus RNA polymerase inhibition; poliovirus polymerase elongation, fluorescence polarization; hits give low values; % elongation, % (compound at 16.7 µg/mL); 0.66% of 150,000 active; AID 588519; in the data active = % elongation below about 90%; note: some results filed as inactive read as strong as hits
# Target sequence (P03300 1749-2209 limits assumed): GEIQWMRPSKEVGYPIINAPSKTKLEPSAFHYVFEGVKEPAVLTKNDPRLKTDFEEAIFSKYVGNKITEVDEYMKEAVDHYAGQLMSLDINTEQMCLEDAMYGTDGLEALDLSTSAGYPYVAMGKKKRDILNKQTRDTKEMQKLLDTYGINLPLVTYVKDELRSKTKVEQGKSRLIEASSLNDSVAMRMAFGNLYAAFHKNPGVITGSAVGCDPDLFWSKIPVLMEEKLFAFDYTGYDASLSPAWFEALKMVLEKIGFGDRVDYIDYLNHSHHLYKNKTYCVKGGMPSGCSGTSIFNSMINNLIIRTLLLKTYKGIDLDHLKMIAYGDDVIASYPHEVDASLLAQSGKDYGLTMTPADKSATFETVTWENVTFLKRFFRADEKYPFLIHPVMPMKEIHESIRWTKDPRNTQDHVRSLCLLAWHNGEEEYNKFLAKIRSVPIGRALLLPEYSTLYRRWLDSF
# PV pol inh intensity = also measured in PV pol inh; calls as there; % elongation; measured here: total intensity read-out; formula for this scale not given here;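 total fluorescence in place of polarization; lower means less elongation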
# * marks the source's active call; other numbers are inactive results. Some of the compounds tested; count on the stated rates, not on these rows.
1) COC(=O)c1c(C)sc(-c2c(-c3ccc4c(c3)OCCO4)[nH]c3c2c(=O)[nH]c(=O)n3C)c1O
  PV pol inh = 109
  PV pol inh intensity = 114

2) COc1ccccc1NC(=O)CSc1oc(-c2ccco2)nc1S(=O)(=O)c1ccc(Br)cc1
  PV pol inh = 103
  PV pol inh intensity = 102

3) COCCCNC(=O)C1CCN(C(=O)c2cc3sccc3n2Cc2ccc(Cl)cc2)CC1
  PV pol inh = 106
  PV pol inh intensity = 107

4) COc1cccc(OC)c1C(=O)Nc1nc2c(s1)CCc1ccccc1-2
  PV pol inh = 106
  PV pol inh intensity = 110

5) O=C(C1CCN(c2ncnc3c2nc2n3CCCCC2)CC1)N1CCN(c2ccccc2)CC1
  PV pol inh = 110
  PV pol inh intensity = 107

6) Cc1oc2ncnc(N3CCCCC3)c2c1C(=O)N1CCN(c2ccc(Cl)cc2)CC1
  PV pol inh = 111
  PV pol inh intensity = 114

7) Cc1cc(C(=O)N2CCN(c3cc(Cl)ccc3C)CC2)c2c(C)nn(-c3ccccc3)c2n1
  PV pol inh = 107
  PV pol inh intensity = 106

8) N#Cc1ccccc1Cn1c(=O)n(-c2cccc(C(F)(F)F)c2)c(=O)c2sccc21
  PV pol inh = 110
  PV pol inh intensity = 111

9) Cc1ccccc1CN1C(=O)c2ccccc2Sc2ccc(C(=O)O)cc21
  PV pol inh = 106
  PV pol inh intensity = 96

10) COc1ccc(OC)c(NC(=O)Cn2c(=O)n(Cc3ccco3)c(=O)c3cc(OC)c(OC)cc32)c1
  PV pol inh = 111
  PV pol inh intensity = 110

11) CC(C)(C)OC(=O)N1CCC(c2c(C(=O)NCc3cccs3)cnn2-c2ccc(F)cc2F)CC1
  PV pol inh = 113
  PV pol inh intensity = 114

12) Cc1ccc(CN2C(=O)c3ccccc3Sc3ccc(C(=O)N4CCOCC4)cc32)cc1
  PV pol inh = 112
  PV pol inh intensity = 109

13) CCc1ccc(NC(=O)c2nnn(Cc3cccc(C(F)(F)F)c3)c2N)cc1
  PV pol inh = 106
  PV pol inh intensity = 108

14) O=C(CSc1ccc2nc(-c3ccccc3)cn2n1)Nc1cccc(F)c1
  PV pol inh = 109
  PV pol inh intensity = 105

15) COc1ccc(CNC(=O)C(CCSC)NS(=O)(=O)c2ccc3c(c2)oc(=O)n3C)cc1 (configuration not stated)
  PV pol inh = 108
  PV pol inh intensity = 117

# A second format for some results above:
# Sequence of screens – PV pol inh	PV pol inh intensity
12. Cc1ccc(CN2C(=O)c3ccccc3Sc3ccc(C(=O)N4CCOCC4)cc32)cc1
 : 112	109
3. COCCCNC(=O)C1CCN(C(=O)c2cc3sccc3n2Cc2ccc(Cl)cc2)CC1
 : 106	107

# 5 structures out of the list, sorted by heavy-atom count, low to high.
4) COc1cccc(OC)c1C(=O)Nc1nc2c(s1)CCc1ccccc1-2
  PV pol inh = 106
  PV pol inh intensity = 110

6) Cc1oc2ncnc(N3CCCCC3)c2c1C(=O)N1CCN(c2ccc(Cl)cc2)CC1
  PV pol inh = 111
  PV pol inh intensity = 114

7) Cc1cc(C(=O)N2CCN(c3cc(Cl)ccc3C)CC2)c2c(C)nn(-c3ccccc3)c2n1
  PV pol inh = 107
  PV pol inh intensity = 106

5) O=C(C1CCN(c2ncnc3c2nc2n3CCCCC2)CC1)N1CCN(c2ccccc2)CC1
  PV pol inh = 110
  PV pol inh intensity = 107

10) COc1ccc(OC)c(NC(=O)Cn2c(=O)n(Cc3ccco3)c(=O)c3cc(OC)c(OC)cc32)c1
  PV pol inh = 111
  PV pol inh intensity = 110

# In the list so far, 2 contain two or more sulfur atoms:
2) COc1ccccc1NC(=O)CSc1oc(-c2ccco2)nc1S(=O)(=O)c1ccc(Br)cc1
  PV pol inh = 103
  PV pol inh intensity = 102

15) COc1ccc(CNC(=O)C(CCSC)NS(=O)(=O)c2ccc3c(c2)oc(=O)n3C)cc1 (configuration not stated)
  PV pol inh = 108
  PV pol inh intensity = 117

# (next part)
16) CC(C)c1ccc(NC(=O)[C@H]2O[C@@H]3OC(C)(C)O[C@@H]3[C@H]3OC(C)(C)O[C@H]32)cc1
  PV pol inh = 109
  PV pol inh intensity = 115

17) O=C(NCC(c1ccco1)S(=O)(=O)c1cccs1)c1ccccc1 (configuration not stated)
  PV pol inh = 100
  PV pol inh intensity = 105

18) Cc1cccc(N2C(=O)CSC23C(=O)N(Cc2cccc(F)c2)c2ccccc23)c1 (configuration not stated)
  PV pol inh = 105
  PV pol inh intensity = 99

19) COc1ccc(S(=O)(=O)NCC(c2ccco2)N2CCOCC2)cc1 (configuration not stated)
  PV pol inh = 103
  PV pol inh intensity = 102

20) Cc1ccccc1NC(=O)CSc1nc2ccc(NC(=O)c3ccccc3)cc2s1
  PV pol inh = 113
  PV pol inh intensity = 117

21) Cc1cc(C)c(/C=C/c2onc(C)c2S(=O)(=O)N2CCC(C(=O)N(C)Cc3ccccc3)CC2)c(C)c1
  PV pol inh = 107
  PV pol inh intensity = 112

22) CCCCN(C)CCNC(=O)C1CCCN(S(=O)(=O)c2cccc3nsnc23)C1 (configuration not stated)
  PV pol inh = 101
  PV pol inh intensity = 103

23) CCn1cc(C(=O)N2CCN(c3ccc(OC)cc3)CC2)c(=O)c2cc(S(=O)(=O)N3CCOCC3)ccc21
  PV pol inh = 101
  PV pol inh intensity = 98

24) CCCOC(=O)c1ccc(NC(=O)Cc2csc(C)n2)cc1
  PV pol inh = 108
  PV pol inh intensity = 98

25) COC(=O)c1cc(NC(=O)c2sc3ccccc3c2Cl)cc(C(=O)OC)c1
  PV pol inh = 108
  PV pol inh intensity = 112

26) CCCN1Cc2cccc(C(=O)Nc3cc(C)cc(C)c3)c2C1=O
  PV pol inh = 106
  PV pol inh intensity = 109

27) COc1ccc(-c2noc(CSc3nnc(-c4ccncc4)n3-c3ccc(C)c(C)c3)n2)cc1
  PV pol inh = 111
  PV pol inh intensity = 109

28) COc1ccc(OC)c(NC(=O)CSc2ccc(-c3cccs3)nn2)c1
  PV pol inh = 104
  PV pol inh intensity = 105

29) CCOc1cccc(CC(=O)NCc2ccc3c(c2)CCN3C(C)=O)c1OCC
  PV pol inh = 110
  PV pol inh intensity = 106

30) O=C(Cc1ccc(Cl)cc1)NCC(c1cccs1)S(=O)(=O)c1ccc(F)cc1 (configuration not stated)
  PV pol inh = 107
  PV pol inh intensity = 107

# Rewritten tab-delimited: entries from further up
cpd	SMILES	PV pol inh	PV pol inh intensity
21	Cc1cc(C)c(/C=C/c2onc(C)c2S(=O)(=O)N2CCC(C(=O)N(C)Cc3ccccc3)CC2)c(C)c1	107	112
22	CCCCN(C)CCNC(=O)C1CCCN(S(=O)(=O)c2cccc3nsnc23)C1 (configuration not stated)	101	103

# The results go on:
31) O=S(=O)(NCc1ccccc1Cl)c1ccc(N2CCCCS2(=O)=O)cc1
  PV pol inh = 104
  PV pol inh intensity = 96

32) COc1ccc(OC)c(NC(=O)CCc2c(C)nc3c(-c4ccccc4)c(C)nn3c2C)c1
  PV pol inh = 111
  PV pol inh intensity = 107

33) CCOc1ccc(NC(=O)Cn2cc(C(=O)c3ccc(CC)cc3)c(=O)c3ccc(C)nc32)cc1
  PV pol inh = 113
  PV pol inh intensity = 110

34) COc1ccc(Nc2cc(C(=O)NC3CCC(C)CC3)c3ccccc3n2)cc1OC (configuration not stated)
  PV pol inh = 108
  PV pol inh intensity = 111

35) COc1ccc(OC)c(CNC(=O)c2cc3cc4ccc(OC)cc4nc3o2)c1
  PV pol inh = 111
  PV pol inh intensity = 109

36) O=C(c1ccc2c(c1)N(Cc1ccccc1)C(=O)c1ccccc1S2(=O)=O)N1CCOCC1
  PV pol inh = 106
  PV pol inh intensity = 109

37) CCc1ccc(-n2nc3cc(C)c(NC(=O)c4cccc5ccccc45)cc3n2)cc1
  PV pol inh = 108
  PV pol inh intensity = 113

38) CCOc1ccccc1CNC(=O)c1ccc(CS(=O)Cc2cccc(Cl)c2)o1 (configuration not stated)
  PV pol inh = 109
  PV pol inh intensity = 112

39) COc1ccc(-n2nnnc2C2CCN(S(=O)(=O)c3ccc(C(C)(C)C)cc3)CC2)cc1
  PV pol inh = 112
  PV pol inh intensity = 116

40) CC(=O)c1cc(-c2ccccc2)n(CCC(=O)NCCc2ccccc2)c1C
  PV pol inh = 100
  PV pol inh intensity = 95

41) Cc1ccc(CCNC(=O)c2cccc(Nc3nc4ccccc4nc3-n3nc(C)cc3C)c2)cc1
  PV pol inh = 104
  PV pol inh intensity = 108

42) CCCCN(C)CCNC(=O)c1c(C)oc2ncnc(N3CCOCC3)c12
  PV pol inh = 107
  PV pol inh intensity = 112

43) COc1cccc(NC(=O)N(Cc2c[nH]c3ccccc23)C2CCCCC2)c1
  PV pol inh = 106
  PV pol inh intensity = 107

44) COc1ccc(NC(=O)C(Cc2ccccc2)n2cccc2)c(OC)c1 (configuration not stated)
  PV pol inh = 104
  PV pol inh intensity = 107

45) CCOc1ccc2nc(N3CCN(C(=O)c4ccc5c(c4)CCCC5)CC3)sc2c1
  PV pol inh = 105
  PV pol inh intensity = 109

46) Cc1cccc(OCC(=O)Nc2c(C)ccc3nsnc23)c1C
  PV pol inh = 102
  PV pol inh intensity = 103

47) COc1ccc(S(=O)(=O)N2Cc3ccccc3CC2C(=O)Nc2ccc(C)cc2C)cc1OC (configuration not stated)
  PV pol inh = 105
  PV pol inh intensity = 108

48) Cc1ccc(S(=O)(=O)N2CCCc3cc(NS(=O)(=O)c4cc(C)ccc4C)ccc32)cc1
  PV pol inh = 104
  PV pol inh intensity = 108

49) O=C(Cn1cc(S(=O)(=O)Cc2cccc(Cl)c2)c2ccccc21)Nc1ccccc1Cl
  PV pol inh = 102
  PV pol inh intensity = 108

50) Cc1ccc(NC(=O)CSc2nc3c(c(=O)[nH]2)CCC3)cc1Cl
  PV pol inh = 109
  PV pol inh intensity = 114

51) COc1ccc(CCNC(=O)C(=O)NCC(c2cccs2)S(=O)(=O)c2ccccc2)cc1 (configuration not stated)
  PV pol inh = 105
  PV pol inh intensity = 100

52) CC(=O)c1ccc(NC(=O)c2ccc(CN3C(=O)CCn4nc(C)cc43)cc2)cc1
  PV pol inh = 109
  PV pol inh intensity = 115

53) COc1ccc(OC)c(CN2CCN(S(=O)(=O)c3ccccc3)CC2)c1
  PV pol inh = 107
  PV pol inh intensity = 110

54) Cc1cc2c(cc3c(SCC(=O)Nc4cccc(Cl)c4C)nnc(C)n32)o1
  PV pol inh = 104
  PV pol inh intensity = 97

55) CCOc1ccc(-c2csc3ncnc(Nc4cccc(O)c4)c23)cc1
  PV pol inh = 109
  PV pol inh intensity = 111

56) Cc1ccc(NC(c2nnc(-c3ccccc3)o2)c2ccccc2F)c(Cl)c1 (configuration not stated)
  PV pol inh = 110
  PV pol inh intensity = 113

57) CCCCCn1c(=O)[nH]c2cc(C(=O)Nc3ccc(OC)c(OC)c3)ccc2c1=O
  PV pol inh = 106
  PV pol inh intensity = 110

58) COc1ccc(Cl)cc1NC(=O)Cn1c(=O)c(-c2ccccc2NC(C)=O)nc2ccccc21
  PV pol inh = 102
  PV pol inh intensity = 89

59) CC(C)(C)C(=O)Cn1c(=O)n(-c2ccc(Cl)cc2)c(=O)c2c3c(sc21)CCCC3
  PV pol inh = 110
  PV pol inh intensity = 114

60) Cc1ccc(C)c(NC(=O)CSc2nc(=O)n(CCN(C)C)c3c2CCC3)c1
  PV pol inh = 105
  PV pol inh intensity = 98
